Screens (PubChem)
Sfp PPTase inh = blocks B. subtilis Sfp PPTase activity. AID 1490. Q9F4F7. 310,000 tested, 3.5% active. Biochemical Sfp PPTase activity, qHTS. Potency, µM, for inactives: max response, negative = inhibition, hits mostly inhibitors; active = well fitted inhibition curve with a large enough effect; inconclusive = small, poorly fitted or top-dose-only effect, or another doubt; inactive = no such curve, though single readings can be large or run the other way;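 note: the enzyme is Sfp with the accession as filed and its product quenches rhodamine fluorescence; potency is the fitted concentration of half-maximal effect; 0% = enzyme reaction without inhibitor and -100% = no enzyme wells; top concentration of the series not given in the record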
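Buffer: 50 mM Hepes-Na pH 7.6, 10 mM MgCl2, 0.01% Nonidet P-40, 0.01% BSA. Enzyme 15 nM, pre-exposed to compound 15 min; substrates then added and fluorescence change tracked over 30 min.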
Menin MLL FP FL = inhibitors of human menin-MLL interaction, wild-type MLL peptide; Fluorescence polarization, fluorescein-MLL peptide displacement from menin; FP activity change, % at 61.4 µM; 290,000 tested, under 10 active; inconclusive = falling polarisation curve, or a change in total fluorescence; inactive = total fluorescence flat and polarisation flat or rising; no compound was filed as active; the % refers to the polarisation; negative = inhibition;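 note: % of control where 0% means no effect; inhibitors lower the polarisation; unlabelled MLL peptide was the positive control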
gsp ag = activates gsp, the McCune-Albright syndrome mutation; gsp mutant cells, cAMP HTRF, 30 min; control for the full effect not named in the record; Potency, µM (titrated, usually from 76.9 µM), inactives show at the highest dose activation (cAMP increase), most hits filed as activators; 340,000 tested, 0.13% active; active = well fitted activation curve with a large enough effect; inconclusive = small, poorly fitted or top-dose-only effect, or another doubt; inactive = no such curve, though single readings can be large or run the other way; cell line not stated here;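 note: phosphodiesterase inhibitor Ro 20-1724 added with compounds to block cAMP breakdown; potency is the fitted concentration of half-maximal effect; nearly all actives have a fitted effect of over 60% in size; about a fifth of the inactives were tested at one dose only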
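Cells stably selected in G418 were plated at 2000/well, grown 16-24 hr, then given compounds in DMSO with the PDE inhibitor […] (300 uM solution added) for 30 min at 37C; cAMP was read by HTRF.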
TRPML1 inh = human mucolipin-1 channel inhibition; activity change, negative = inhibition, % (concentration not given with the values); Q9GZU1; TRPML1-inducible cells, Ca2+ dye fluorescence, FDSS; active compounds read low; inhibition of EC80 agonist-evoked calcium signal; AID 624415; 390,000 tested, 0.02% active; in the data active means activity change below about -50%; inconclusive means about -30% to -50%; inactive means above about -30%;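 note: stimulus is agonist 54-4 at its EC80 concentration; % is set by controls: 0 for no effect and ±100 for the full control effect; the text of the record puts the active cut at -80%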
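Tet-induced TRPML1-DL cells loaded with Ca8 no-wash calcium dye were read kinetically on FDSS. Compound addition was followed by EC80 agonist 54-4 (4 uM final); inhibition was read over 110 s.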
ClpP mod = qHTS Assay for Activators of ClpP. 340,000 tested, 1.9% active. Potency, µM (top dose mostly 57.5 µM), for inactives: top-dose activity change, negative = active. purified B. subtilis ClpP, FRET peptide cleavage, 20 min; active = well fitted falling curve with a large enough effect; inconclusive = small, poorly fitted or top-dose-only effect; inactive = no such curve, though single readings can be large or run the other way; note: potency is the fitted concentration of half-maximal effect; the source files actives as falling curves though it sought activators and does not explain the sign; nearly all actives have a fitted effect of over 65% in size; many hits overshoot -100%
Target sequence (P80244 whole entry, looked up): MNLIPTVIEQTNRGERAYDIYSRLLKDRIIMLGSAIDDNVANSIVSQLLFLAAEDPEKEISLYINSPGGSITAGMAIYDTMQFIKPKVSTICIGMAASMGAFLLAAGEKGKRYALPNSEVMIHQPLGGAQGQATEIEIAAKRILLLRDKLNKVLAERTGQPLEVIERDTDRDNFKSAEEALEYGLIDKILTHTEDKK
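FRET quenching reversal measured ClpP activation: 10 microg/mL B. subtilis ClpP at pH 8 with the FRET-FV decapeptide, read at 430 nm after 320 nm excitation. The 20-min minus 0-min signal was scaled between DMSO/no-enzyme wells and ADEP (5.8 microM final).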
TRPV1 potentiator = enhances activation of the human vanilloid receptor TRPV1 | TRPV1-expressing cells, Fluo-8 calcium influx, capsaicin EC20 potentiation; host cell line not named in the record; control for the full effect not named in the record | Q8NER1 | potentiation, % at 8.33 µM | AID 540277 | 320,000 tested, 0.02% active; active means potentiation above 80%; inconclusive means 30% to 80%; inactive means below 30%; note: 0% is about no effect
Target sequence (Q8NER1 whole entry, looked up): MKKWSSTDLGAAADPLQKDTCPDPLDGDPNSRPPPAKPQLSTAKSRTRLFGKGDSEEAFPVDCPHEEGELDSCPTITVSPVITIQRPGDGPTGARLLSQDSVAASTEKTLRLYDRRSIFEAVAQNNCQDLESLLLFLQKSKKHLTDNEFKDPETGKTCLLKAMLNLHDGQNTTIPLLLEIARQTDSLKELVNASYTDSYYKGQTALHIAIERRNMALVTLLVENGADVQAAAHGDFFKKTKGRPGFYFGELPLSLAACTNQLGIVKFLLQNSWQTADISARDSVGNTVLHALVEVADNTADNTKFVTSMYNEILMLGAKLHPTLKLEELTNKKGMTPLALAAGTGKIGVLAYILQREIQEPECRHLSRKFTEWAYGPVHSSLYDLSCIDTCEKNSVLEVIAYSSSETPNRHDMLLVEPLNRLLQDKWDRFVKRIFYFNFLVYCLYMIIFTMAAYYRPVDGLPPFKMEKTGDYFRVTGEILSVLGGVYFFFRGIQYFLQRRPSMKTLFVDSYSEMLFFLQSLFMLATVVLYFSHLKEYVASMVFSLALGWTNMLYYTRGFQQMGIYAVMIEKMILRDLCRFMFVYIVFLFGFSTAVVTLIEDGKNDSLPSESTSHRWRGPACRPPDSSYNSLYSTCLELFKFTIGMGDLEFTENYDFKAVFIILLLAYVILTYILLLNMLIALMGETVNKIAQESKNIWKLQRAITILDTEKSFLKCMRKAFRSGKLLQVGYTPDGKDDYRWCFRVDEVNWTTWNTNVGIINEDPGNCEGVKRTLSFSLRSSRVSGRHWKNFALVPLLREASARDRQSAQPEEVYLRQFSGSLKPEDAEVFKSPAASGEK
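TRPV1-expressing cells were cultured overnight at 35.5C and loaded with Fluo-8 calcium dye for 40 to 90 min at room temperature. After a 10 s baseline, compound was added and calcium influx was read kinetically for 3 min (ex 480/em 520 nm).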
gsp antagonist = gsp mutant antagonism. AID 624288. gsp-mutant cells, cAMP HTRF, 30 min; control for the full effect not named in the record. Potency, µM (highest dose often 76.9 µM), for inactives: at the highest dose activity change, negative = inhibition, most hits filed as inhibitors. 340,000 tested, 0.4% active; active = falling curve of any shape with a large fitted effect; inconclusive = falling curve, mostly with a smaller effect; inactive = flat or rising curve; cell line not stated here;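 note: intracellular cAMP measured with PDE inhibitor Ro 20-1724 present during compound exposure; potency is the fitted concentration of half-maximal effect; % is set by controls: 0 for no effect and ±100 for the full control effect; nearly all actives have a fitted effect of over 65% in size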
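G418-selected cells were plated in DMEM/10% FBS for 16-24 h at 37C, then treated with compounds plus the PDE inhibitor […] (300 uM solution added) for 30 min at 37C. Intracellular cAMP was measured by HTRF after 30 min lysis at room temperature.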
* = called active by the depositor; u = inconclusive; x = no result given; & = joins results of further samples; [ ] = dose if it differs, or a comment. Compounds as they come; any-hit rate near 4.9%.

SMILES | Sfp PPTase inh | Menin MLL FP FL | gsp ag | TRPML1 inh | ClpP mod | TRPV1 potentiator | gsp antagonist
CC1=CC=CC2=NC(=O)CC(C)(C(=O)N(CC(=O)NC(C)C)C3CCCC3)N12 (stereo not given) | 14% | -1.2 | -20% | -1 | -6.8% | 7 | 2%
CCCn1c(N2CCN(C(=O)Nc3ccccc3)CC2)nc2ccccc21 | 5% | -2.4 | -7%[15.4 µM] | 12 | -2.3% | 3 | -13%
CC(C)N(Cc1ccccc1)C(=O)CCc1ccccc1 | 2% | -2.1 | -53%[inhibitor] | -5 | 0.0% | -1 | -4%
COC(=O)C1(C)NC(c2ccc(F)cc2)C2C(=O)N(c3ccc(C)cc3)C(=O)C21 (stereo not given) | 15% | 1.4 | -9% | 0 | 0.3% | -5 | -1%
CCN1C(=O)CSC1=NC12CC3CC(CC(C3)C1)C2 | 4% | 1.8 | -37%[inhibitor] | 2 | -0.6% | -15 | -13%
CC1Cc2ccccc2N1C(=O)COC(=O)CSc1ccc(F)cc1 (stereo not given) | x | x | -56%[inhibitor] | 27 | -1.3% | 5 | 11%
COc1ccccc1CNC(=O)C1CCN(c2nc3ccccc3o2)CC1 | -5% | 1.0 | 17% | 20 | -0.4% | 5 | 0%
Cc1nc2scc(C)n2c(=O)c1S(=O)(=O)NCc1ccccc1Cl | 5% | x | 7% | -4&9 | 4.0%&3.9% | 3 | -1%
COc1ccc(/C=N/NC(C)(C)C)c(OC)c1 | -13% | -3.4 | -3%[15.4 µM] | -2 | x | 5 | -3%
Cn1cccc1/C=C1\SC(=O)N(c2ccc(O)cc2)C1=O | 3% | u | -29% | 0 | 2.7% | -23 | -15%

The list goes on, starting with the last 2 of the part before.
SMILES | Sfp PPTase inh | Menin MLL FP FL | gsp ag | TRPML1 inh | ClpP mod | TRPV1 potentiator | gsp antagonist
COc1ccc(/C=N/NC(C)(C)C)c(OC)c1 | -13% | -3.4 | -3%[15.4 µM] | -2 | x | 5 | -3%
Cn1cccc1/C=C1\SC(=O)N(c2ccc(O)cc2)C1=O | 3% | u | -29% | 0 | 2.7% | -23 | -15%
CCCn1c(SCC(=O)Nc2nnc(-c3ccccc3)s2)nnc1-c1ccccn1 | 12% | 2.9 | 2% | 2 | -25% | -19 | -19%
CCOc1cc(/C=N/O)ccc1OCc1ccc([N+](=O)[O-])cc1 | 5% | 2.6 | -2% | 22 | 1.4% | 2 | 20%
O=C(CNC(=O)c1ccc(Cl)cc1)NCC(F)(F)F | 7% | 3.9 | -37%[inhibitor] | -22 | -1.3% | 1 | 12%
O=C(NN1C(=O)C2C3C=CC([C@H]4CC34)[C@@H]2C1=O)c1ccc(Br)cc1 (stereo not given in full) | -16% | 1.3 | -6% | -7 | 1.1% | -10 | -2%
CCc1cccc(NC(=O)c2cnn(-c3ccccc3)c2C)c1 | 14% | -4.7 | 2% | 16 | -0.7% | -1 | 6%
Cc1ccc(-c2csc(NC(=O)C3CCN(S(=O)(=O)c4cccs4)CC3)n2)cc1 | 19% | 1.3 | -2% | -20 | 1.0% | 2 | u
O=C(NCc1cccnc1)c1csc2c1CCCC2 | 28% | 5.7 | 0%[15.4 µM] | -7 | -2.6% | 0 | 7%
Cc1ccc(-c2nc(Nc3ccc(O)cc3)c3ccccc3n2)cc1 | 10% | 0.1 | 15% | -2 | x | -2 | -15%
Cc1onc(-c2ccccc2)c1C(=O)NCc1ccc(Cl)cc1 | 6% | -1.3 | 0% | 33 | 0.3% | 1 | -5%
CC(=O)c1c(C)nc(-c2ccccc2)nc1NC(=O)Cc1ccccc1 | 22% | -0.5 | 0%[15.4 µM] | 33 | x | -9 | 8%

3 entries from above, arranged by the number in Sfp PPTase inh, high to low.
| canonical_smiles | Sfp PPTase inh |
| --- | --- |
| CCc1cccc(NC(=O)c2cnn(-c3ccccc3)c2C)c1 | 14% |
| CCCn1c(SCC(=O)Nc2nnc(-c3ccccc3)s2)nnc1-c1ccccn1 | 12% |
| CCOc1cc(/C=N/O)ccc1OCc1ccc([N+](=O)[O-])cc1 | 5% |

More records follow.
SMILES | Sfp PPTase inh | Menin MLL FP FL | gsp ag | TRPML1 inh | ClpP mod | TRPV1 potentiator | gsp antagonist
CN=Cc1cc(-c2ccccc2)sc1O | 6% | 2.4 | -15% | 5 | -8.0% | -13 | -1%
CN1CCC(OC(=O)COc2ccc(F)cc2)CC1 | -1% | -0.3 | -7%[15.4 µM] | 5 | -0.3% | 22 | 14%
CCc1nc(N2CCOCC2)c(C#N)c2c1CCCC2 | 9% | 1.8 | 13% | -2 | 95% | 3 | -22%
CC(C)(C)c1ccc(Cn2nnc3c(=O)[nH]c(C4CCN(C(=O)c5ccco5)CC4)nc32)cc1 | -1% | 3.4 | 10%[15.4 µM] | -6 | -0.1% | -19 | -15%
Cc1onc(-c2ccccc2)c1C(=O)Nc1ccnn1C1CCCCC1 | 12% | 1.3 | -2% | -6 | -4.1% | 4 | -11%
O=C(C/C=N/OCc1ccc(Cl)cc1Cl)c1ccccc1 | 3% | 1.1 | 24% | 0 | 0.1% | 27 | 1%
CSc1cccc(NC(=S)N(Cc2ccc(C)cc2)Cc2cccnc2)c1 | 5% | 0.7 | -2%[15.4 µM] | 11 | x | 8 | -5%
O=C(CCc1nc2cccnc2n1Cc1ccccc1)NCCc1ccc(Cl)cc1 | 7% | 0.9 | -36%[inhibitor] | 25 | -1.7% | 1 | -4%
CCOc1ccc(C(=O)OC(C)CN2CCN(C)CC2)cc1 (stereo not given) | 16% | -2.1 | 11%[15.4 µM] | 58 | -0.9% | 1 | 6%
O=C(NCc1ccco1)C1CC(c2ccc(C(F)(F)F)cc2)=NO1 (stereo not given) | x | x | x | 23 | -1.3% | x | 21%
O=C(Nc1cccc(C(F)(F)F)c1)C1CC(=O)N(Cc2ccco2)C1 (stereo not given) | x | x | -19% | -8 | 0.7% | x | x
CCN1C(=NCc2cc(OC)c(OC)c(OC)c2)N[C@@H](c2ccccc2)C(C(=O)OC)=C1C | 5% | -1.9 | 14% | 15 | -1.8% | 1 | 1%
Cc1cc(NC(=O)C(=O)NCc2cccc(Cl)c2)no1 | -2% | -0.5 | 12%[15.4 µM] | 0 | x | 12 | 6%
O=C(O)C1CCCCC1C(=O)NCCc1ccccc1 (stereo not given) | 19% | 0.8 | u | 2 | 0.1% | 9 | 2%
Nc1nc(Sc2ccc(C(F)(F)F)cn2)n[nH]1 | 1% | 3.4 | 26% | 2 | x | -5 | 6%
COc1ccccc1NS(=O)(=O)c1cc([N+](=O)[O-])ccc1N/N=C/c1sc(N2CCOCC2)nc1-c1ccccc1 | u | u | 17% | 8 | -1.8% | 0 | 3%
COc1ccccc1NS(=O)(=O)c1ccc(C(=O)N2CCN(c3ccccc3O)CC2)cc1 | x | x | -51% | -9 | 0.7% | 7 | -9%
CCOc1cc(C(=O)OCC(=O)c2c(C)[nH]c3ccccc23)ccc1OCC(=O)N1CCOCC1 | 3% | 2.0 | 24% | 6 | 0.4% | 9 | u
COc1ccccc1CNCc1ccc(C)cc1 | -17% | -2.9 | 1% | -4 | 1.3% | 18 | 14%
Cc1ccc(/C=C/C(=O)Nc2ccc(S(=O)(=O)Nc3onc(C)c3C)cc2)cc1 | 8% | x | 1%[15.4 µM] | -15 | x | 9 | -16%
Cc1ccc(C(=O)OCC(=O)NCc2cccs2)cc1C | 21% | -2.8 | -11%[15.4 µM] | 9 | x | -21 | 11%
COC(=O)C1=C(C(=O)OC)C(c2ccccc2O)c2sc(=O)[nH]c2S1 (stereo not given) | 8.9µM* | u | -18%[15.4 µM] | -5 | -17% | 29 | -1%
Cc1cc(SCC(=O)NC2(C#N)CCCCC2)nc2c(C)cccc12 | x | x | u | 11 | 32µM* | -17 | -9%
O=S(=O)(Cc1ccccc1)Nc1ccc(S(=O)(=O)N2CCCC2)cc1 | 11% | -0.8 | 22% | 15 | 1.7% | -21 | -1%
Cc1nc(N2CCCCC2)c2c(C)c(C(=O)Nc3ccccc3C(F)(F)F)sc2n1 | u | -2.4 | u | 4 | x | -21 | -23%
CCCCn1c(=O)[nH]c(=O)c2c1nc(-c1ccccc1F)n2Cc1ccccc1 | u | -1.2 | 20% | 52 | x | 18 | -16%
Cc1ccc(NC(=O)COC(=O)CCn2c(C)csc2=O)cc1S(=O)(=O)N1CCOCC1 | x | x | -11%[15.4 µM] | 0 | -0.9% | 5 | 0%
C/C(=N\Nc1ncc(Cl)cc1Cl)c1ccc(OC(F)F)cc1 | 56µM* | u | 28%[15.4 µM] | -3 | -0.3% | 2 | -9%
CCOc1ccc(/C=N/Nc2nc(=O)[nH]nc2C)cc1OC | 25µM* | -7.4 | 1% | 9 | -3.3% | 6 | -10%
N#Cc1cccc(NC(=O)COc2ccc(-n3ccnc3)cc2)c1 | -8% | -1.4 | 0% | 19 | 0.5% | -5 | u
Cc1nnc2ccc(Oc3ccc(-c4ccccc4)cc3)nn12 | -17% | 0.2 | -4% | 31 | -1.6% | -11 | u
O=C1NC(=S)S/C1=C\c1cc(Cl)ccc1Cl | x | x | -21% | -1 | -9.9% | x | u
O=C(/C=C/c1cccs1)Nc1ccc([N+](=O)[O-])cc1 | -4% | 2.8 | -21% | -11 | -1.6% | -9 | -9%
COc1ccc(/C=N/NC(=O)c2ccc3nc[nH]c3c2)cc1 | 13% | 5.1 | -3%[15.4 µM] | 2 | 0.2% | x | 2%
O=C(CCc1nnc2ccc(N3CCCC3)nn12)Nc1ccc(F)cc1F | 19% | -2.0 | u | 39 | 0.4% | -8 | 4%
CC(/C=N/NC(=O)Cn1cnc2ccccc21)=C\c1ccccc1 | 9% | 2.6 | 10% | 26 | -0.5% | 4 | 1%
CN(Cc1ccccc1)C(=O)COc1ccc(Br)cc1Cl | 1% | 3.1 | 13% | -3 | -0.4% | 0 | 0%
COc1cccc(C(=O)Nc2c[nH]c(=O)[nH]c2=O)c1 | 14% | 2.2 | -2%[15.4 µM] | -11 | x | 4 | 6%
CC(=O)N1CCN(C(=O)CNc2cc(C(F)(F)F)ccc2OCC(F)(F)F)CC1 | 9% | 0.2 | -2% | 2 | 1.2% | -5 | 7%
